# Sa growth 42C – inhibitors of Staphylococcus aureus growth at 42 °C; S. aureus RN4220 growth, OD600, 20 h; hits give low values; relative growth, % (concentration not given with the values); actives 0.53% (n = 170,000); AID 720641;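 active = growth at 42 °C up to 50% and 20 or more points under that at 30 °C, or under 10% at both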;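 also: 300 nL library stock went into each well; scaled to the means of positive and negative controls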
# GIV Gai3 FP – blocks GIV peptide binding to rat Galpha-i3. percent of control (FP), % (concentration not given with the values). P08753. Galpha-i3/FITC-GIV peptide fluorescence polarization, 90 min; hits give low values; scaled: aluminum fluoride 0%, vehicle 100%. actives 0.42% (n = 210,000). AID 1224905;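 active = replicate mean at 85% of control or lower, very high polarization wells dropped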;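 also: wells of about 15 µL received 100 nL stock; the first replicate is given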
# Target sequence (P08753 whole entry, looked up): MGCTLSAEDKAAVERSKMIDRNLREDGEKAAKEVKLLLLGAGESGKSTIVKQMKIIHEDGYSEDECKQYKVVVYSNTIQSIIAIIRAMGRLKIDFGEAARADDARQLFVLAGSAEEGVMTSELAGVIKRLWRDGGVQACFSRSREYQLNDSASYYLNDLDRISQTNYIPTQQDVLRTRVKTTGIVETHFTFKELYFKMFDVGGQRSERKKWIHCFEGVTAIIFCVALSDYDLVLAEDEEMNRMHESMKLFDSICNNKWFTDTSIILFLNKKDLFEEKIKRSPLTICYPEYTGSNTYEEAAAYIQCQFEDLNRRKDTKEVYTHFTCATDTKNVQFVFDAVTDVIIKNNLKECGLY
# HCMV UL50-53 inh – inhibitors of HCMV UL50-UL53 nuclear egress complex interaction | AID 1918969 | inhibition, % (concentration not given with the values) | HTRF UL50-UL53 interaction, normalized percent inhibition | actives 0.15% (n = 190,000);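 active = both replicates at 50% or more, plus weaker picks with an unusually low signal ratio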;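 also: stock transfer was 100 nL into about 20 µL; 0% = negative control wells and 100% = wells with untagged competitor protein; inactives centre near -12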
# Sa growth 42C second temp – recorded beside Sa growth 42C, whose call it bears; relative growth, %; measured here: growth at 30 °C;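 optical density after 20 h as mean of two plates; 100% = untreated growth and lower means inhibition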
# * marks the source's active call; other numbers are inactive results; · = not tested or not shown; & = joins results of further samples.
# Values run as follows: Sa growth 42C	Sa growth 42C second temp	GIV Gai3 FP	HCMV UL50-53 inh
> CCCCNC(=O)CN1C(=O)C(C)CSc2ccc(S(=O)(=O)N3CCOCC3)cc21 (stereo unspecified)
→ ·	·	100	-15
> Cc1ccc(NC(=O)C2(N3CCN(c4ccccc4)CC3)CCCCC2)cc1
→ 101	95	108	-8
> O=C(CCc1ccccc1)NCc1ccc2c(c1)OCO2
→ 91	100	102	-17
> CC1SC(c2ccc(Cl)cc2)NC1=O (stereo unspecified)
→ 94	80	99	-19
> O=c1c2ccccc2nc(/C=C/c2cccc3ccccc23)n1-c1ccc(F)cc1F
→ 110	103	110	·
> COc1cc([N+](=O)[O-])cc2sc(NC(=O)C34CC5CC(CC(C5)C3)C4)nc12
→ ·	·	121	-13
> O=C(c1ccc(NC(=S)NCc2ccco2)cc1)N1CCCCC1
→ 103	88	104	-11
> COc1ccc(NC(=O)Cn2cnc3ccc(S(=O)(=O)N4CCC(C)CC4)cc3c2=O)cc1OC
→ 75	85	100&97	-15&-9
> CCOC(=O)c1c(C)[nH]c(C)c1S(=O)(=O)N1CCC(C(=O)NCc2cccnc2)CC1
→ ·	·	100	6
> CC(C)(C)c1ccc(C2NC(=O)c3ccccc3N2)cc1 (stereo unspecified)
→ 100	97	·	7
> Cc1ccc(Nc2cc(C)c(C#N)c3nc4ccccc4n23)cc1Cl
→ 102	87	111	-5
> Cc1cc(C(=O)COc2ccc(Cl)cc2)c(C)n1-c1ccon1
→ 100	94	·	-4
> O=S(=O)(c1ccc(F)cc1)N1CCCN(c2nccc(C(F)(F)F)n2)CC1
→ 95	89	98	6
> O=C(NCc1ccco1)c1cccc(COc2ccccc2Br)c1
→ 94	98	101	1
> COc1ccc(C(=O)Cc2cc3ccccc3oc2=O)c(OC)c1
→ 97	90	99	·
> Cc1ccc(C)c(S(=O)(=O)c2nnn3c2nc(N2CCC(C(N)=O)CC2)c2sccc23)c1
→ 78	56	96	-9
> CC(=O)c1cccc(NC(=O)CCS(=O)(=O)c2cc(Br)cc3c2N(C(=O)C2CC2)CC3)c1
→ 105	102	105	2
> O=c1cc(Cc2nnc(SCc3c(F)cccc3Cl)n2-c2ccc(F)cc2)[nH]c(=O)[nH]1
→ 99	82	102	·
> O=C(CSc1ccccn1)Nc1ncccn1
→ 80	70	100	5
> CCN1N=C(C)C=C(C)n2c1nc1ccccc12
→ 75	94	·	13
> CC1=C(C(=O)OCC2CCCCC2)C(c2c(F)cccc2Cl)CC(=O)N1 (stereo unspecified)
→ 115	97	105	-4
> COC(=O)C(N=Cc1ccccc1)c1ccccc1 (stereo unspecified)
→ ·	·	100	-8
> COc1ccc(-n2ncc(C(=O)NCc3ccccc3)c2C2CCN(C(=O)OC(C)(C)C)CC2)cc1
→ 90	88	106	·
> C=CCN(C(=O)Cn1c(=O)n(Cc2ccco2)c(=O)c2cc(OC)c(OC)cc21)c1ccccc1
→ 108	88	103	·
> O=C1NC(c2ccccc2)c2c(-c3ccccc3)n[nH]c21 (stereo unspecified)
→ 100	99	102	-1
> CCC(C)NC(=O)c1ccc(Cn2c(=O)c3cc(OC)c(OC)cc3n(CC(N)=O)c2=O)cc1 (stereo unspecified)
→ ·	·	103	-31
> O=C(Cc1ccc(-n2cccc2)cc1)NCCc1ccccc1
→ 101	95	103	·
> COc1ccc(C(=O)Nc2ccc(C)c(C)c2)cc1
→ 101	122	·	-2
> CCOC(=O)c1[nH]c(C)c(S(=O)(=O)NC(C)CC)c1C (stereo unspecified)
→ ·	·	103	-1
> Nc1ncnc2sc3c(c12)CCCC3
→ 106	96	97	-19

# 4 entries from above, field by field.
Molecule: C=CCN(C(=O)Cn1c(=O)n(Cc2ccco2)c(=O)c2cc(OC)c(OC)cc21)c1ccccc1
  Sa growth 42C: 108	Sa growth 42C second temp: 88	GIV Gai3 FP: 103	HCMV UL50-53 inh: ·

Molecule: O=C1NC(c2ccccc2)c2c(-c3ccccc3)n[nH]c21 (stereo unspecified)
  Sa growth 42C: 100	Sa growth 42C second temp: 99	GIV Gai3 FP: 102	HCMV UL50-53 inh: -1

Molecule: CCC(C)NC(=O)c1ccc(Cn2c(=O)c3cc(OC)c(OC)cc3n(CC(N)=O)c2=O)cc1 (stereo unspecified)
  Sa growth 42C: ·	Sa growth 42C second temp: ·	GIV Gai3 FP: 103	HCMV UL50-53 inh: -31

Molecule: O=C(Cc1ccc(-n2cccc2)cc1)NCCc1ccccc1
  Sa growth 42C: 101	Sa growth 42C second temp: 95	GIV Gai3 FP: 103	HCMV UL50-53 inh: ·

# The list continues.
# Values run as follows: Sa growth 42C	Sa growth 42C second temp	GIV Gai3 FP	HCMV UL50-53 inh
> CC(C)(CC(=O)OCC(=O)Nc1ccccc1F)CC1=NS(=O)(=O)c2ccccc2N1
→ 109	84	103	·
> COC(=O)C1=C(CN2CCC(C)CC2)NC(=O)NC1c1ccc(OC)cc1 (stereo unspecified)
→ 88	74	104	6
> N#CC1C2CCC(C2)C1C(=O)c1ccccc1 (stereo unspecified)
→ 97	101	·	-8
> CCOC(=O)c1ccc2c(c1)sc1nc(-c3cccc(OC)c3)cn12
→ 92	79	106	12
> CCOc1ccccc1NC(=O)Cn1nnc2sc(-c3ccccc3)cc2c1=O
→ 93	84	116	-8
> OC(COCc1ccccc1)CN1CCN(c2ccccc2)CC1 (stereo unspecified)
→ 97	93	·	-3
> COc1cc(OC)cc(C(=O)N2CCN(c3nc4ccccc4cc3-c3noc(C)n3)CC2)c1
→ ·	·	111	-8
> O=c1c2ccccc2nnn1CN1CCN(S(=O)(=O)c2cccs2)CC1
→ 98	100	·	-30
> CCC1=Nc2cc(C(=O)NCC(C)c3ccccc3)ccc2Sc2ccc(C)cc21 (stereo unspecified)
→ 105	92	103	-8
> O=C(Nc1cccc(F)c1)c1cc2ccccc2c(=O)s1
→ ·	·	104	-6
> CN(O)/C=C1\C(=O)Nc2ccccc21
→ ·	·	105	-22
> Cc1ccc(OCCCn2c(=O)oc3ccccc32)cc1
→ 100	59	·	-13
> CCc1ccc(CN(Cc2ccco2)C(=O)COc2ccc(Cl)c(C)c2)cc1
→ 94	77	101	-23
> CCN(Cc1ccccc1)C(=O)c1cc2ccc3cccnc3c2[nH]1
→ 69	64	103	·
> Cc1[nH]c2ccccc2c1C(=O)C(C)OC(=O)c1cccc(N(C)C)c1 (stereo unspecified)
→ 68	61	·	-3
> O=C(Nc1ccc(O)cc1)C(=O)c1c(O)[nH]c2ccccc12
→ 92	86	·	-21
> Cc1ccc2nc(NCc3ccc(C(=O)O)cc3)c3nnnn3c2c1
→ ·	·	108	-33
> CCCCS(=O)(=O)Nc1cc(C(=O)OC)cc(C(=O)OC)c1
→ 101	107	104	-8
> COc1ccc(C2CC(c3ccccc3)n3ncnc3N2C(=O)C2CC2)cc1 (stereo unspecified)
→ 95	81	97	·
> c1ccc2c(c1)ncc1cccn12
→ 87	53	101	-69
> CCC(C)NC(=O)c1cc2n(n1)CC(C)(C(=O)NC1CCCC1)N(C)C2=O (stereo unspecified)
→ ·	·	101	-9
> O=C(NCCc1ccsc1)c1cc2c(Cl)nc3ccccc3c2s1
→ 98	96	102	·
> O=c1ccc2cc(S(=O)(=O)NC3CCCCC3)ccc2[nH]1
→ 99	93	102	·
> O=C(O)Cc1coc(-c2ccccc2)n1
→ 86	90	·	-34
> Cc1ccc(N2CC(c3nnc(NC(=O)c4c(-c5ccccc5)noc4C)s3)CC2=O)cc1Cl (stereo unspecified)
→ ·	·	113	-6
> c1ccc(-c2nnc3sc(CN4CCc5ccccc54)cn23)cc1
→ 111	80	107	-5
> c1ccc(C2CCN(c3ncnc4c3nc3n4CCCCC3)C2)cc1 (stereo unspecified)
→ 100	83	100	-19
> CC(SCc1nc2sc3c(c2c(=O)[nH]1)CCCC3)C(=O)NCc1ccco1 (stereo unspecified)
→ 71	86	·	-29
> CCCn1c(=N)c(C(=O)NC2CCCC2)cc2c(=O)n3cc(C)ccc3nc21
→ 101	91	106	-68
> CCOC(=O)C1CCN(C(=O)CN2C(=O)c3cccnc3Oc3ccccc32)CC1
→ 97	89	102	-15
> Cc1ccc(NC(=O)c2csc(-c3cccnc3)n2)cc1
→ 109	79	107	-3
> Cc1nc2cc(Nc3nnc(-c4ccccc4)c4ccccc34)ccc2n1C
→ ·	·	92	-51
> COC(=O)COc1ccc2c(C)cc(=O)oc2c1
→ 108	101	98	-2
> CC1(C(=O)N2CCCC2)CCC(=O)N1CCc1ccco1 (stereo unspecified)
→ 97	91	108	-7
> CCCCN(CC)C(=O)Cn1nc(Cc2ccncc2)c2ccccc2c1=O
→ 103	93	105	10
> O=C(NCc1ccc2c(c1)OCO2)C1CC(c2cccc(Br)c2)=NO1 (stereo unspecified)
→ 105	98	102	-17
> O=C(Cn1cnc2c(nc3n2CCCCC3)c1=O)N1CCN(c2ccccc2)CC1
→ ·	·	102	6
> Cc1cc(C)n(C(=O)CCCC(=O)O)n1
→ 105	79	108	-36
> O=C(CCN1C(=O)c2ccccc2C1=O)N1CCCC1
→ 100	83	98	-16
> COC(=O)/C=C1\SC(=Nc2ccc(C)cc2)NC1=O
→ 95	92	111	3
> COc1cc(C)cc(CN2CCN(S(=O)(=O)c3ccccc3C#N)CC2)c1O
→ 119	97	·	5
> CC(C)N1CCn2c(nc3cc(NS(C)(=O)=O)ccc32)C1
→ ·	·	95	-25
> O=C(O)C(Cc1ccccc1)P(=O)(c1ccccc1)c1ccccc1 (stereo unspecified)
→ 122	92	·	-10
> Cc1cc2n(n1)CC(C)(C(=O)NCc1ccccc1)N(c1ccccc1C)C2=O (stereo unspecified)
→ ·	·	97	-2
> Cc1ccc(Cn2c(=O)n(Cc3ccccc3Cl)c(=O)c3cccnc32)cc1
→ 101	88	106	-35
> CCOC(=O)Cn1c(=O)c2cnc(-c3ccccc3)nc2n(CC)c1=O
→ ·	·	98	-11
> CCCC(=O)Nc1cc(-c2nnc3c4ccccc4c(C)nn23)ccc1C
→ 86	93	100	-47
> NS(=O)(=O)c1ccc(CNC(=O)c2cccc3cccnc23)cc1
→ 98	87	·	-16
> CC1CCc2c(sc3nc(NN)n(C)c(=O)c23)C1 (stereo unspecified)
→ 110	79	100	·
> N#Cc1c(NC(=O)COc2ncnc3ccccc23)sc2c1CCC2
→ 78	74	·	-27
> Cc1nc2ccc(S(=O)(=O)NCC(=O)N3CCOCC3)cc2s1
→ 100	93	105	0
> CCC(=O)Nc1ccccc1-c1nnn(CC(=O)N2c3ccccc3CC2C)n1 (stereo unspecified)
→ 96	83	106	-5
> Cn1c(SC(F)F)nnc1-c1ccc2c(c1)OCO2
→ 100	100	105	-36
> C=CCNc1nc(Cl)nc(NCC(=O)OCC)n1
→ 116	87	·	-3
> CC(=O)NC1C(=O)Nc2c(C)cc(C)cc21 (stereo unspecified)
→ 90	80	104	-16
> NC(=S)N1CCC(c2ccccc2)=N1
→ 110	87	101	-34
> O=C(NC1CCCCNC1=O)c1ccc2nsnc2c1 (stereo unspecified)
→ 93	97	106	-115
> CC(C(=O)N1CCCC1)N(c1ccccc1)S(C)(=O)=O (stereo unspecified)
→ 88	87	·	-11
> CCOc1ccc(CNC(=O)c2cc(=O)[nH]c3ccc(S(=O)(=O)N4CCCCC4)cc23)cc1
→ 121	87	100	·
> Cc1nc2ccccc2n1CO
→ 129	79	·	-50

# Other results follow.
# Values run as follows: Sa growth 42C	Sa growth 42C second temp	GIV Gai3 FP	HCMV UL50-53 inh
> O=C(CN1C(=O)CSc2ccccc21)OCCCn1c(=O)[nH]c2ccccc21
→ 93	79	·	1
> COC(=O)c1scc(-c2ccc(C)cc2)c1S(=O)(=O)N1CCN(c2cccc(OC)c2)CC1
→ 114	97	102	·
> COc1ccc(OC)c(-n2c3c(cc(-c4nc(-c5ccc(Cl)cc5)cs4)c2=O)C(=O)CC(C)(C)C3)c1
→ 90	85	99	-9
> Cc1ccc(C2C3=C(CCCC3=O)N(C)C3=C2C(=O)CCC3)cc1
→ 101	73	98	-24
> COc1cc(Cl)c(C)cc1NC(=O)c1nn(C)c2c1CSc1ccccc1-2
→ 106	96	102	-19
> Cn1c(NC(=O)C2c3ccccc3Oc3ccccc32)cc(=O)n(C)c1=O
→ ·	·	102	6
> Cc1nc(N2CCN(CC(=O)NC3CC3)CC2)c2c(-c3ccccc3)csc2n1
→ 94	88	·	-12
> O=C(Nc1cccc(C(F)(F)F)c1)c1cc2nc(-c3ccco3)cc(C(F)(F)F)n2n1
→ ·	·	99	-3
> COc1cccc2c1C(=O)c1c(O)c3c(c(O)c1C2=O)C[C@@](O)(C(=O)CO)C[C@@H]3OC1C[C@H](N)[C@H](O)[C@H](C)O1 (stereo partly specified)
→ 33	27	·	-128
> O=C(O)CCc1nc(-c2ccco2)no1
→ 95	88	99	-15
> CC(=O)n1ccc(-c2ccc(-c3cc(C(F)(F)F)n(C)n3)s2)n1
→ 85	82	102	-18
> Cc1nc(N)sc1-c1csc(Nc2ccccc2)n1
→ 100	73	106	-16
> O=C(CCc1nc2ccccc2s1)N1CCN(Cc2ccccc2)CC1
→ 100	87	·	-40
> O=C(CSc1ncccc1C(=O)N1CCc2ccccc2C1)Nc1ccc2c(c1)OCO2
→ 114	93	·	-3
> COC(=O)c1cc(-c2ccc3c(c2)OCO3)no1
→ 101	87	·	-41
> CCCN1C(=O)C(O)(c2c[nH]c3ccccc23)c2ccccc21 (stereo unspecified)
→ 104	79	100	·
> COc1ccc(OC)c(N=C2SCS2)c1
→ 101	84	98	-10
> CN(Cc1ccccc1)C(=O)Cn1cc(S(=O)(=O)N2CCCC2)c(S(=O)(=O)N2CCCC2)c1
→ 94	95	106	-7
> CCOC(=O)c1c(N)n(-c2ccc(C)c(Cl)c2)c2nc3ccccc3nc12
→ 89	93	105	·

# Screening data (PubChem)
